Sfp PPTase inh: qHTS Assay for Inhibitors of Bacillus subtilis Sfp phosphopantetheinyl transferase (PPTase) | AID 1490, 2009 | Biochemical Sfp PPTase activity, qHTS | Potency, µM, for the others: max response, negative = inhibition, hits mostly inhibitors | 310,000 tested, 3.5% active; active = well fitted inhibition curve with a large enough effect; inconclusive = small, poorly fitted or top-dose-only effect, or another doubt; inactive = no such curve, though single readings can be large or run the other way;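 note: the enzyme is Sfp with the accession as filed and its product quenches rhodamine fluorescence; potency is the fitted concentration of half-maximal effect; 0% = enzyme reaction without inhibitor and -100% = no enzyme wells; top concentration of the series not given in the record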
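With Hepes-Na pH 7.6 buffer containing 10 mM MgCl2, Sfp (15 nM) modified BHQ-2-YbbR (12.5 uM) using rhodamine-CoA (5 uM). Two reads 30 minutes apart at 525/598 nm yielded each well's rate.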
gsp antagonist: qHTS for Antagonists of gsp, the Etiologic Mutation Responsible for Fibrous Dysplasia/McCune-Albright Syndrome: qHTS; gsp-mutant cells, cAMP HTRF, 30 min; control for the full effect not named in the record; Potency, µM (highest dose often 76.9 µM), for inactives: at the highest dose activity change, negative = inhibition, most hits filed as inhibitors; 340,000 tested, 0.4% active; active = falling curve of any shape with a large fitted effect; inconclusive = falling curve, mostly with a smaller effect; inactive = flat or rising curve; cell line not stated here;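 note: intracellular cAMP measured with PDE inhibitor Ro 20-1724 present during compound exposure; potency is the fitted concentration of half-maximal effect; % is set by controls: 0 for no effect and ±100 for the full control effect; nearly all actives have a fitted effect of over 65% in size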
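HTRF cAMP measurement after 30 min RT detection following 30 min, 37C compound treatment alongside […] (added as 300 uM solution) in G418-selected cells seeded at 2000/well and grown 16–24 h.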
TRPV1 potentiator: HTS Assay for Compounds that Act as Potentiators of the Vanilloid Receptor 1; Transient receptor potential cation channel subfamily V member 1 (Homo sapiens), Q8NER1; TRPV1-expressing cells, Fluo-8 calcium influx, capsaicin EC20 potentiation; host cell line not named in the record; control for the full effect not named in the record; 320,000 tested, 0.02% active; potentiation, % at 8.33 µM; active means potentiation above 80%; inconclusive means 30% to 80%; inactive means below 30%; note: 0% is about no effect
Target sequence (Q8NER1 whole entry, looked up): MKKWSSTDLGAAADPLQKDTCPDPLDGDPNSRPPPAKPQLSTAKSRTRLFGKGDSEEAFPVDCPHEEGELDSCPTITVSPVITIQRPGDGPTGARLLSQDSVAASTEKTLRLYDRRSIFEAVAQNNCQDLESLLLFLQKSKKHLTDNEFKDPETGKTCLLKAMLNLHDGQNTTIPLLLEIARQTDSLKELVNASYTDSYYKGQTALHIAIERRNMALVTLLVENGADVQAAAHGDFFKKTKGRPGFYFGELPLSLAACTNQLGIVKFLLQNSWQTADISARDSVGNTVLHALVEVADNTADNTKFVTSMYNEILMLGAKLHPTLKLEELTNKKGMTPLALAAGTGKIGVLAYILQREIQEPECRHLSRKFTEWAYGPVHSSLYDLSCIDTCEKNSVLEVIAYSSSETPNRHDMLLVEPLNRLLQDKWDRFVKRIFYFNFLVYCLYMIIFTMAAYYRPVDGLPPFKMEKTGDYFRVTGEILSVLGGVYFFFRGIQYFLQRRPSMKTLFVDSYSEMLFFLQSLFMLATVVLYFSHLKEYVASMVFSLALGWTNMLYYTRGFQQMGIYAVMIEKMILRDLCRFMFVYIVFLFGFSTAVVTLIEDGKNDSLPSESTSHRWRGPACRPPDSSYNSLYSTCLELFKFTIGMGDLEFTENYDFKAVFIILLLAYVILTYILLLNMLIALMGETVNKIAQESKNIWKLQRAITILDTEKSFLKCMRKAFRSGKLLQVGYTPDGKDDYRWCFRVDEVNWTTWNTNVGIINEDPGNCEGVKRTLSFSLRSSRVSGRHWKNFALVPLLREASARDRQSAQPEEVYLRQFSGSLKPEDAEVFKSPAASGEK
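Cells expressing TRPV1 were dye-loaded with Fluo-8 and read kinetically: 10 s baseline, 3 min after compound (agonist portion), then 2 min after EC20 capsaicin (allosteric enhancer portion). Calcium-bound dye fluorescence at 480/520 nm.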
ClpP mod: qHTS Assay for Activators of ClpP; 340,000 tested, 1.9% active; Potency, µM (series often up to 57.5 µM), for inactives: top-dose activity change, negative = active; purified B. subtilis ClpP, FRET peptide cleavage, 20 min; AID 651965, 2013; active = well fitted falling curve with a large enough effect; inconclusive = small, poorly fitted or top-dose-only effect; inactive = no such curve, though single readings can be large or run the other way; note: potency is the fitted concentration of half-maximal effect; the source files actives as falling curves though it sought activators and does not explain the sign; nearly all actives have a fitted effect of over 65% in size; many hits overshoot -100%
Target sequence (P80244 whole entry, looked up): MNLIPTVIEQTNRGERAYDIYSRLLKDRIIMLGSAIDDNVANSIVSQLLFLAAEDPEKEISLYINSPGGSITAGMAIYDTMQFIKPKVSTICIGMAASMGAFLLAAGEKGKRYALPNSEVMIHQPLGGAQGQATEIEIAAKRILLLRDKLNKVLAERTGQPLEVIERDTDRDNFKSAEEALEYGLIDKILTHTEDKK
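Buffer: 100 mM Tris/HCl pH8, 100 mM KCl, 0.05% low protease BSA, 2.5% glycerol, 0.01% Tween-20. ClpP 10 microg/mL final; 20 min RT; delta FRET normalized to ADEP and DMSO controls.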
gsp ag: qHTS for Agonist of gsp, the Etiologic Mutation Responsible for Fibrous Dysplasia/McCune-Albright Syndrome: qHTS; gsp mutant cells, cAMP HTRF, 30 min; control for the full effect not named in the record; Potency, µM (doses to about 76.9 µM), for inactives: top-dose activation (cAMP increase), actives largely listed as activators; 340,000 tested, 0.13% active; active = well fitted activation curve with a large enough effect; inconclusive = small, poorly fitted or top-dose-only effect, or another doubt; inactive = no such curve, though single readings can be large or run the other way; cell line not stated here;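 note: phosphodiesterase inhibitor Ro 20-1724 added with compounds to block cAMP breakdown; potency is the fitted concentration of half-maximal effect; nearly all actives have a fitted effect of over 60% in size; about a fifth of the inactives were tested at one dose only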
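Cells in DMEM/10% FBS with G418 were pretreated with compounds in DMSO plus […] (300 uM stock) for 30 min at 37C. cAMP was measured by HTRF (cAMP-d2 plus anti-cAMP antibody-K) after 30 min at room temperature.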
Menin-MLL FL inh: qHTS Assay for Inhibitors Targeting the Menin-MLL Interaction in MLL Related Leukemias: Competition With Fluorescein Labeled MLL-derived Peptide; Fluorescence polarization, fluorescein-MLL peptide displacement from menin; FP activity change, % at 61.4 µM; 290,000 tested, under 10 active; AID 1766, 2009; inconclusive = falling polarisation curve, or a change in total fluorescence; inactive = total fluorescence flat and polarisation flat or rising; no compound was filed as active; the % refers to the polarisation; negative = inhibition;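 note: % of control where 0% means no effect; inhibitors lower the polarisation; unlabelled MLL peptide was the positive control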
TRPML1 inh: qHTS for Inhibitors of the Human Mucolipin Transient Receptor Potential 1 (TRPML1). Mucolipin-1 (Homo sapiens), Q9GZU1. TRPML1-inducible cells, Ca2+ dye fluorescence, FDSS; stronger effect = lower value; inhibition of EC80 agonist-evoked calcium signal. activity change, negative = inhibition, % (concentration not given with the values). 390,000 tested, 0.02% active; in the data active means activity change below about -50%; inconclusive means about -30% to -50%; inactive means above about -30%;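 note: stimulus is agonist 54-4 at its EC80 concentration; % is set by controls: 0 for no effect and ±100 for the full control effect; compound concentration not given in the record; the text of the record puts the active cut at -80%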
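Tet-induced TRPML1-DL cells loaded with Ca8 no-wash calcium dye were read kinetically on FDSS. Compound addition was followed by EC80 agonist 54-4 (4 uM final); inhibition was read over 110 s.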
* hit, by the source's call; u = inconclusive; x = no result given; & = joins results of further samples; [ ] = dose if it differs, or a comment. Rows are unselected (roughly 4.9% active in at least one column).

SMILES	Sfp PPTase inh	gsp antagonist	TRPV1 potentiator	ClpP mod	gsp ag	Menin-MLL FL inh	TRPML1 inh
C=CCN1C(=O)C(=Cc2ccc3c(c2)CCC3)SC1=S	x	x	x	1.5%	-7.3%	x	-11.0
CCCc1nc2ccc(NC(=O)c3ccco3)cc2c(=O)n1Cc1ccccc1Cl	1.3%	u	-2.9	-11.8%	-1.6%	-2.4	5.9
COc1ccc(C(C(=O)NC2CCCC2)N(C(=O)Cc2cccs2)C2CC2)cc1OC (stereo not given)	13.2%	8.5%	0.8	x	12.5%[15.4 µM]	-0.3	-1.1
CCOC(=O)C1=C(C)NC(=O)NC1c1ccc(OC)c(CN2CCOCC2)c1 (stereo not given)	14.5%	2.9%	-1.6	-3.4%	-37.6%[inhibitor]	9.6	0.3
COc1ccc(C(=O)CSc2nc3ccccc3n2CC(=O)c2ccccc2)cc1	22.4%	-14.9%	u	0.2%	-1.6%	7.0	-6.8
Oc1ccc(N2CCN(C(c3cccnc3)c3nnnn3Cc3ccccc3)CC2)cc1 (stereo not given)	u	u	-25.3	1.8%	4.7%	2.5	22.7
COC(=O)c1cccc(NC(=O)CCNC(=O)c2ccc([N+](=O)[O-])cc2)c1	14.2%	1.6%	13.1	-0.6%	-1.3%	3.1	-7.8
COc1ccc(C2/C(=C(/O)c3ccccc3)C(=O)C(=O)N2C)c(OC)c1 (stereo not given)	-11.4%	-7.3%	u	0.6%	-14.8%	-4.4	9.0
Cc1ccccc1N1CCN(c2ccc(NC(=O)C3CCCCC3C(=O)O)cc2)CC1 (stereo not given)	0.2%	-6.2%	15.8	-1.3%	-45.8%[inhibitor]	1.9	10.6
CCn1c(=O)c([N+](=O)[O-])c(NC2CCS(=O)(=O)C2)c2ccccc21 (stereo not given)	-0.9%	3.0%	-0.6	x	24.1%	3.9	-10.0
C=C[C@]1(C)C=C2CCC3[C@](C)(CCC[C@@]3(C)C(=O)O)C2CC1 (stereo not given in full)	x	-5.0%	13.5	1.0%	x	x	x
COc1ccc(-c2cc(C(F)(F)F)n3nc(C(=O)N4CCN(C(=O)c5ccco5)CC4)cc3n2)cc1	15.2%	-13.9%	13.2	4.1%	u	-0.6	-6.9
CC(C(=O)Nc1ccc(OCc2ccccc2)cc1)N1CCCC1 (stereo not given)	-2.2%	3.8%	21.2	x	12.2%	-3.5	-4.8
CCn1c(=O)c([N+](=O)[O-])c(NCc2ccco2)c2ccccc21	-8.6%	-11.8%	-2.4	-1.2%	-14.1%	-2.0	51.8
CCCc1nnc(NC(=O)CN2CCN(C)CC2)s1	-18.7%	-5.9%	20.4	0.2%	-19.2%	6.2	-9.1
Cc1cc(Nc2ccc(C)c(C)c2)n2nc(C)nc2n1	20.4%	2.7%	-14.3	0.5%	-74.0%[inhibitor]	1.7	22.3
NC(=O)CSc1nnc(-c2cc(-c3ccc(Cl)cc3)nc3ccccc23)o1	17.7%	-10.4%	0.5	x	2.5%[15.4 µM]	2.6	-2.2
C=CCSC(=S)NC1CCS(=O)(=O)C1 (stereo not given)	-21.1%	8.4%	-6.4	0.6%	-10.1%	1.3	11.2
O=C(COC(=O)/C=C/c1ccccc1)NCc1ccc2c(c1)OCO2	x	13.2%	x	-1.8%	1.0%	x	1.6
COc1ccc(NS(=O)(=O)c2cc(NC(=O)C3=NN(c4ccccc4)C(=O)CC3)ccc2C)cc1	x	-7.6%	x	-6.9%	5.0%	x	35.6
C#CCOCCOCCOCCNc1nc(N2CCN(C(=O)Cn3cc(CC(C)O)nn3)CC2)nc(N2CCN(C(=O)[C@H](C)n3cc(CCC(=O)O)nn3)CC2)n1 (stereo not given in full)	x	9.2%	x	0.1%	x	x	-18.5
O=C(Cn1nnc(-c2ccccc2)n1)NCc1cccs1	9.5%	8.0%	-14.8	0.5%	-43.4%[inhibitor]	6.1	38.1
CCOc1ccc(N2C(=O)CC(N3CCN(C(=O)c4ccco4)CC3)C2=O)cc1 (stereo not given)	14.1%	5.3%	-9.2	-1.6%	-16.1%	3.1	1.5
O=C(Cc1cccc(NC(=O)C2CCCN(C(=O)C3CCC3)C2)c1)Nc1ccc(C(=O)N2CCCCC2)cc1 (stereo not given)	x	4.3%	x	-3.4%	x	x	11.6
OCC[C@@H]1C[C@H](O)[C@@H](O)[C@@]2(CCCCO2)O1	x	12.1%	x	0.5%	x	x	11.1
O=C(CCCC(=O)N1CCN(c2cccc(Cl)c2)CC1)c1ccccc1	-3.1%	u	-2.8	1.9%	-1.8%	3.6	24.3
CC(c1ccco1)N(C(=O)Nc1ccc(Cl)cc1)c1ccccn1 (stereo not given)	11.1%	-14.3%	-9.4	-1.5%	u	-1.8	-8.9
Cc1cc(C)cc(C(=O)NN2CCOCC2)c1	9.0%	11.3%	-5.2	-3.4%	-5.9%	-0.6	-22.6
CCCCn1c(NCc2ccncc2)nc2ccccc21	18.9%	4.4%	8.6	x	2.2%	3.5	-10.2
O=C(NN=Cc1cccc2ccccc12)C1CC1	x	7.7%	x	x	-39.7%[inhibitor]	x	6.7
C=CCn1c(SCCCC)nc(O)cc1=O	-17.5%&8.1%	-17.9%&-17.2%	-6.3&3.9	0.4%	-11.7%	6.1&-0.8	-16.4&5.1
Nc1nnc(Sc2ccc(Cl)cc2[N+](=O)[O-])s1	6.8%	6.2%	-4.3	x	-13.7%[15.4 µM]	1.2	7.1
CCOC(=O)N1CCN(c2c(N3CCN(c4ccccc4F)CC3)c(=O)c2=O)CC1	3.5%	-3.8%	-1.3	x	-5.7%[15.4 µM]	-0.1	-3.6
CCOc1ccccc1N(CC(=O)N/N=C(\C)c1cccc(Br)c1)S(C)(=O)=O	9.6%	-10.2%	12.3	x	-24.5%[15.4 µM]	6.0	11.7
COC(=O)C1=C(Nc2ccc(OC)cc2)C=C(C)C(C(=O)OC)C1c1ccc(C)cc1 (stereo not given)	12.1%	2.4%	-11.4	-6.6%	u	-1.1	3.3
COc1ccc(S(=O)(=O)N2CCCCC2)cc1NC(=O)CSc1ncnc2ccccc12	5.2%	26.8%	1.7	0.5%	20µM*	-0.3	16.1
Cc1ccsc1-c1cc(C(=O)O)c2c(ccc3ccccc32)n1	5.9%	-29.1%	22.2	0.2%	-3.2%[15.4 µM]	-9.1	-3.2
C=C(C)C(=O)Nc1cccc(C2=NOC3(C2)C[C@H](C(N)=O)N(C(=O)/C=C/C)C3)c1 (stereo not given in full)	-2.8%	10.4%	24.8	1.6%	5.7%	5.3	-10.6
CCOc1cc(NC(=S)NCCCN2CCOCC2)c(OCC)cc1NC(=O)c1ccco1	7.6%	6.6%	13.0	x	12.5%[15.4 µM]	2.7	-8.2
CN(CCc1ccccn1)C(=O)CCC1CCCN(C(=O)c2ccsc2)C1 (stereo not given)	10.0%	2.8%	0.0	2.2%	-25.3%	-0.4	-2.5

In the list so far, 4 have a thiophene ring, fused or not:
SMILES	Sfp PPTase inh	gsp antagonist	TRPV1 potentiator	ClpP mod	gsp ag	Menin-MLL FL inh	TRPML1 inh
COc1ccc(C(C(=O)NC2CCCC2)N(C(=O)Cc2cccs2)C2CC2)cc1OC (stereo not given)	13.2%	8.5%	0.8	x	12.5%[15.4 µM]	-0.3	-1.1
O=C(Cn1nnc(-c2ccccc2)n1)NCc1cccs1	9.5%	8.0%	-14.8	0.5%	-43.4%[inhibitor]	6.1	38.1
Cc1ccsc1-c1cc(C(=O)O)c2c(ccc3ccccc32)n1	5.9%	-29.1%	22.2	0.2%	-3.2%[15.4 µM]	-9.1	-3.2
CN(CCc1ccccn1)C(=O)CCC1CCCN(C(=O)c2ccsc2)C1 (stereo not given)	10.0%	2.8%	0.0	2.2%	-25.3%	-0.4	-2.5

Continuation:
SMILES	Sfp PPTase inh	gsp antagonist	TRPV1 potentiator	ClpP mod	gsp ag	Menin-MLL FL inh	TRPML1 inh
COc1ccccc1C(=O)NCCNc1ccc([N+](=O)[O-])cc1Cl	4.1%	-12.7%	21.2	-0.1%	6.3%	-4.3	1.7
O=C(c1ccc2c(c1)OCO2)N(c1ccc(Cl)cc1)C1C=CS(=O)(=O)C1 (stereo not given)	8.6%	5.1%	7.0	0.2%	-17.3%	4.4	-15.3
CN(C(=O)COC(=O)c1ccc(Cl)s1)C1(C#N)CCCCC1	x	10.5%	-11.2	x	-9.0%[15.4 µM]	x	10.1
CCc1ccc(OCC(=O)N(C)C)c(Br)c1	21.2%	-0.4%	1.2	0.9%	-4.1%	1.1	15.4
CC(C)NC(=O)NC(=O)COC(=O)c1ccccc1O	15.0%	-3.0%	16.4	x	24.2%	1.5	6.8
COc1cc(O)c(C(CC(=O)N2CCCCC2)c2ccc(N(C)C)cc2)c(OC)c1 (stereo not given)	-9.7%&-9.8%	-2.6%	14.0	0.6%	x	-2.9&3.8	11.3&4.7
Cc1nn(-c2ccc(F)cc2)c(C)c1NS(=O)(=O)c1ccc(Cl)cc1	15.5%	-13.6%	-10.8	1.1%	-5.7%	1.0	8.9
Cc1nc(N)[nH]c(=O)c1CC(=O)OCCCl	-4.9%	0.9%	-1.4	1.5%	-3.6%	2.5	9.8
COc1ccc(CCNC(=O)CCNS(=O)(=O)c2cc(Br)cnc2N)cc1OC	14.2%	6.5%	-5.1	-23.8%	u	-3.3	30.8
CN(CC(=O)Nc1cccc(F)c1)C(=O)c1ccc(N2CCCCCC2)c([N+](=O)[O-])c1	x	-13.4%	-9.0	x	11.3%[15.4 µM]	x	5.2
O=C(Nc1cccn(Cc2c(Cl)cccc2Cl)c1=O)c1ccccc1Cl	12.6%	5.2%	-8.6	-18.4%	-30.9%	-1.2	12.0
Cc1ccccc1Cn1nc(C)c(NC(=O)c2ccccc2)c1C	-5.7%	3.4%	6.6	-2.7%	-6.0%[15.4 µM]	-0.7	7.7
